High-throughput results from PubChem.
H5N1 CPE – MDCK cell protection from H5N1 avian flu. cytopathic effect, luminescence, 72 h; hits give high values; no value below 0 was filed and about half of the inactive calls have no number; reference of the scale not given here. inhibition, % at 50 µM. 96,000 tested, 0.07% active; in the data active means inhibition above about 25%
An asterisk follows results filed as active; i = inactive. These rows are one share of the data (hit frequency here may not be typical).

SMILES	H5N1 CPE
COc1ccc(C(CNC(=O)c2ccc(N3CCCC3=O)cc2)N(C)C)cc1 (configuration not stated)	0.5
O=C(O)c1cc(-c2ccccc2)n(-c2ccccc2)n1	i
Clc1ccccc1N1CCN(c2ncnc3nc[nH]c23)CC1	i
Cc1ccc(NC(=O)OCC(F)(F)C(F)F)cc1NC(=O)OCC(F)(F)C(F)F	i
O=S(=O)(c1ccccc1)c1cnn2c(C(F)(F)F)cc(-c3ccccc3)nc12	0.8
CCCCn1c(SCC(=O)N2CCOCC2)nnc1-c1cccs1	0.2
Cc1ccc2cc(C#N)c(NCCNC(=O)C3CCC3)nc2c1C	i
O=C(C1CCCN(S(=O)(=O)c2cccc3nsnc23)C1)N1CCC2(CC1)OCCO2 (configuration not stated)	4.5
CC(C)(CN1CCCCC1)NS(=O)(=O)c1ccc(Cl)cc1	i
Nn1c(N2CCCCC2)nc2ccccc21	3.2
CCCc1nnc(SCC(=O)N2C(C)CCCC2C)n1CC1CCCO1 (configuration not stated)	i
O=C(CN(C(=O)CNS(=O)(=O)c1ccccc1)c1ccc2c(c1)OCCO2)NC1CCCCC1	i
O=C(O)CC12CSc3[nH]c(=O)sc3C1c1ccccc1OC2=O (configuration not stated)	1.4
Cc1ccc2[nH]c3c(c2c1)CN(C(=O)CN1CCN(c2ccccc2)CC1)CC3	i
CCOC(=O)Cn1c(=NC(=O)CSC(C)=O)sc2ccccc21	2.0
O=C(O)CCn1c(C(=O)O)cc2sccc21	i
Cc1ccccc1Cn1c(C(=O)OC(C)C)cc2c1ccn2C	i
Cc1ccc(NC(=O)C2C3CC4OC(=O)C2C4C3)cc1Cl (configuration not stated)	i
CC1(C)CC(=O)C=C(NCC2CCCO2)C1 (configuration not stated)	0.4
COc1cccc(/C=N/n2cnc3ccccc32)c1OC	i
Cc1ccc(Cn2nnc3c(=O)[nH]c(C4CCN(S(=O)(=O)c5ccccc5)CC4)nc32)cc1	1.1
CCn1c(-c2ccccc2)c[nH]c1=S	1.5
O=C(Nc1ccc(F)cc1)c1cc(S(=O)(=O)Nc2ccc(F)cc2)cs1	0.4
O=C1C2C3C=CC(C3)C2C(=O)N1CNc1ccccn1 (configuration not stated)	0.6
CC(CCc1ccccc1)NC(=O)c1ccc(Cl)nc1 (configuration not stated)	2.0
Carrying on.
SMILES	H5N1 CPE
O=C(NCCCN1CCOCC1)c1cc2c(s1)CCC2	i
Cc1nc2ccc3nc(NC(=O)C4COc5ccccc5O4)sc3c2s1 (configuration not stated)	1.3
Cc1ccc(/C=C/C(=O)Nc2ccc([N+](=O)[O-])cc2)o1	1.5
O=C(CSCc1ccc(Br)cc1)Nc1ccc(S(=O)(=O)N2CCOCC2)cc1	0.8
Cc1cc(C)cc(-n2c(C)cc(/C=N/NC(=O)c3cccc([N+](=O)[O-])c3C)c2C)c1	i
CCOCCCNCC(=O)NC1(C)C2CCC(C2)C1(C)C (configuration not stated)	i
O=C(Nc1cc(C(F)(F)F)ccc1N1CCOCC1)c1ccc2ccccc2n1	0.0
CCn1c(SCC(=O)c2ccc(Cl)cc2)nnc1C(C)C	i
Cc1ccc(N(C(=O)Cn2nnc(-c3cccs3)n2)C(C(=O)NC2CCCC2)c2ccncc2)cc1 (configuration not stated)	i
Cc1nc2c(ccc3c2ccc2nc(C)sc23)s1	0.1
CCn1c(=O)c2c(n3cnnc13)-c1ccccc1CC21CCCCC1	0.1
COc1cccc(C(=O)c2sc(NC(C)C)nc2N)c1	10.2
O=C(Nc1ccc2c(c1)OCO2)c1ccc[n+]([O-])c1	i
CC(C)=C1SC(N2CCOCC2)=NC1=O	i
CCOC(=O)C1CCN(CCC(=O)Nc2ccc(Cl)cc2)CC1	0.2
Nc1c(C(=O)NCc2ccco2)sc2nc3c(cc12)C(=O)CCC3	3.5
CCOC(=O)C1=C(N)OC(C)=C(C(=O)OCCOC)C12C(=O)Nc1ccccc12 (configuration not stated)	1.2
COCCN1C(=O)N(c2cccc(C)c2)C(=O)C1CC(=O)Nc1ccc(F)cc1 (configuration not stated)	0.2
CCOC(=O)c1c(NC(=O)Nc2cccc(Cl)c2)sc(C)c1C	i
CCOC(=O)c1cncn1C(C)c1ccccc1 (configuration not stated)	1.2
Cc1ccc(N(C(=O)C2CCCO2)C2C=CS(=O)(=O)C2)cc1Cl (configuration not stated)	i
CCn1c(SCC(=O)Nc2ccc3c(c2)c2ccccc2n3CC)nnc1-c1cnccn1	1.8
CCCCn1c(CN2CCN(c3ccccc3)CC2)nc2c1c(=O)n(C)c(=O)n2C	0.2
CCCN1CC23C=CC(O2)C(C(=O)O)C3C1=O (configuration not stated)	0.2
COCCn1c(SCC(=O)N2CCCc3ccccc32)nnc1-c1ccco1	0.3

A draw from above in order of heavy-atom count, highest first:
SMILES	H5N1 CPE
Cc1ccc(N(C(=O)Cn2nnc(-c3cccs3)n2)C(C(=O)NC2CCCC2)c2ccncc2)cc1 (configuration not stated)	i
O=C(CN(C(=O)CNS(=O)(=O)c1ccccc1)c1ccc2c(c1)OCCO2)NC1CCCCC1	i
Cc1ccc(Cn2nnc3c(=O)[nH]c(C4CCN(S(=O)(=O)c5ccccc5)CC4)nc32)cc1	1.1
O=C(C1CCCN(S(=O)(=O)c2cccc3nsnc23)C1)N1CCC2(CC1)OCCO2 (configuration not stated)	4.5
CCOC(=O)C1=C(N)OC(C)=C(C(=O)OCCOC)C12C(=O)Nc1ccccc12 (configuration not stated)	1.2
COCCn1c(SCC(=O)N2CCCc3ccccc32)nnc1-c1ccco1	0.3
O=C(Nc1ccc(F)cc1)c1cc(S(=O)(=O)Nc2ccc(F)cc2)cs1	0.4
CCn1c(=O)c2c(n3cnnc13)-c1ccccc1CC21CCCCC1	0.1
CCCCn1c(SCC(=O)N2CCOCC2)nnc1-c1cccs1	0.2
CCOC(=O)C1CCN(CCC(=O)Nc2ccc(Cl)cc2)CC1	0.2
Clc1ccccc1N1CCN(c2ncnc3nc[nH]c23)CC1	i
COc1cccc(/C=N/n2cnc3ccccc32)c1OC	i
Cc1ccc(/C=C/C(=O)Nc2ccc([N+](=O)[O-])cc2)o1	1.5
O=C(Nc1ccc2c(c1)OCO2)c1ccc[n+]([O-])c1	i
CCOC(=O)c1cncn1C(C)c1ccccc1 (configuration not stated)	1.2
CCCN1CC23C=CC(O2)C(C(=O)O)C3C1=O (configuration not stated)	0.2
O=C(O)CCn1c(C(=O)O)cc2sccc21	i
CC(C)=C1SC(N2CCOCC2)=NC1=O	i
CCn1c(-c2ccccc2)c[nH]c1=S	1.5

More results.
SMILES	H5N1 CPE
CCCc1cc(=O)[nH]c(SCc2ccc(C#N)cc2)n1	0.1
CCc1c(C)nc(SC)n(CC#N)c1=O	i
O=S(=O)(c1ccccc1)c1cnc(-c2cccnc2)nc1-c1ccc(Cl)cc1Cl	0.4
COc1ccc(-c2cc(-n3c(C(F)(F)F)nc4ccccc43)n(CCC#N)n2)cc1	5.8
O=C(Cc1coc2cc3c(cc12)CCC3)OCc1cc(=O)n2c(n1)sc1ccccc12	3.5
COc1ccc(C2C(C#N)=C(N)N(Nc3ccccc3)C3=C2C(=O)CC(C)(C)C3)cc1C (configuration not stated)	2.5
CCn1c(Cc2ccc(OC)cc2)nnc1SCC(=O)Nc1nc2ccccc2s1	0.8
Cc1ccccc1Cn1nc(C)c(NC(=O)c2noc3c2CC(C(C)(C)C)CC3)c1C (configuration not stated)	7.3
COc1ccc(CCNC(=O)CN2CCCc3ccccc32)cc1OC	i
CC1CN(C(=O)Cc2ccc(-c3ccccc3)cc2)CC(C)O1 (configuration not stated)	1.8
Cc1ccccc1NC(=O)Cn1c(=O)n(C)c2ccccc21	1.1
CC(C)CCNC(=O)CN(Cc1ccc2c(c1)OCO2)C(=O)CCC(=O)Nc1ccccn1	i
Cc1ccc(NC(=O)Cn2c(CCC(=O)O)ccc2-c2cccs2)cc1	i
CCOC(=O)NC1(C(F)(F)F)N=C(c2ccccc2)NC1=O (configuration not stated)	i
Fc1cccc(C2CC(c3cccc(Br)c3)Nc3nnnn32)c1 (configuration not stated)	i
CCOC(=O)c1ccc(NC(=O)CNC(=O)c2ccccc2)cc1	0.0
c1ccc2c(CCNC3=NCCC3)c[nH]c2c1	0.6
COc1ccc(NCc2nnc(SCC(=O)Nc3cccc(C)c3)o2)cc1	i
Cc1[nH]nc2oc(=O)c(CCO)c(C)c12	0.7
Cc1ccc(-c2nc(=S)c3c(n2CCN2CCOCC2)CC(C)(C)OC3)cc1	1.1
Cc1cc(=O)n2nc(-c3ccccc3)sc2n1	i
Nc1nonc1C(=O)NCCNS(=O)(=O)c1ccc(Br)cc1	0.5
Cc1ccc(S(=O)(=O)Nc2cccc(-c3cn4ccsc4n3)c2)cc1	9.4
CCOC(=O)C1CCN(C(=O)CSCCSCC(=O)N2CCC(C(=O)OCC)CC2)CC1	1.0
CCc1ccc(N2CC(C(=O)Nc3ccc(C)c(S(=O)(=O)N4CCOCC4)c3)CC2=O)cc1 (configuration not stated)	i
More results follow.
SMILES	H5N1 CPE
O=C(Cn1cc(C(=O)c2ccccc2F)c2ccccc21)NCc1ccco1	2.4
Cc1c2c(nc3c(C(=O)NC4CC4)cnn13)CCCC2	0.8
O=C(CCc1ccccc1)c1ccc2c(c1)OCCCO2	8.7
CCOc1ccc(OCC)c(NC(=O)CNS(=O)(=O)c2cccs2)c1	0.7
CCCCc1cc(=O)oc2cc(OCC(=O)N(CC)CC)c(Cl)cc12	0.6
CC1CCN(S(=O)(=O)c2ccc(S(=O)(=O)NCc3ccccc3)cc2)CC1	i
CC(C)N1CC=C(c2c[nH]c3ccccc23)CC1	0.2
O=C1C2C3C=CC(C3)C2C(=O)N1c1cccnc1 (configuration not stated)	i
O=C(Cc1ccccc1)NC(=S)Nc1cccc(C(F)(F)F)c1	i
COc1cnc(SCC(=O)O)[nH]c1=O	i
O=C(NCCO)c1ccc2[nH]c3ccccc3c2c1	i
CCCCCCCOC(=O)c1ccc(OC(=O)c2cccnc2)cc1	0.3
Cc1ccc(C(C)C)cc1OCCOCCN1CCCC1	i
Cc1ccc(C(=O)n2c3ccccc3c3ccccc32)cc1	i
COCCCNC(=O)CN(c1cccc(Cl)c1C)S(C)(=O)=O	i
Cc1ccc2nc(NCC(=O)O)nc(-c3ccccc3)c2c1	i
CCn1c(SCC(=O)c2ccccc2)nnc1-c1cnccn1	0.4
Cc1nnc(NC(=O)CN2C(=O)c3ccccc3S2(=O)=O)s1	0.7
CC(NC(=O)Cn1cnc([N+](=O)[O-])n1)c1ccccc1 (configuration not stated)	i
CC(=O)c1ccccc1OCC(O)CN1CCN(C(c2ccccc2)c2ccccc2)CC1 (configuration not stated)	i
CCCCNc1oc(-c2ccc(OC)cc2)nc1S(=O)(=O)c1ccccc1	0.6
COC(=O)C1=C(C)NC(C)=C(C(=O)OC)C1c1ccc2ccccc2n1	0.2
CCCCN(CC)Cc1ccc(CNC(=O)Nc2ccc(OCC)cc2)o1	i
O=C1CC(C(=O)N(CC2CCCO2)C(C(=O)NC2CCCCC2)c2ccncc2)CS1 (configuration not stated)	i
O=C(NC1CCCCC1)C(c1ccncc1)N(CC1CCCO1)C(=O)C(F)(F)F (configuration not stated)	i
Additional compounds follow.
SMILES	H5N1 CPE
O=S(=O)(NCc1ccncc1)c1ccc(S(=O)(=O)NCC2CCCO2)cc1 (configuration not stated)	i
COC(=O)c1c(N)n(Cc2ccc(OC)cc2)c2nc3ccccc3nc12	i
CCOC(=O)c1c(C)c(C(=O)Nc2ccccc2)c(C)n1CC	0.4
Cc1ccc(Nc2nc(N)nc(CN3CCN(c4ccccc4)CC3)n2)cc1Cl	i
O=C(CCC1CC(=O)Nc2ccccc21)NCc1ccc(F)cc1 (configuration not stated)	i
O=C(NCc1ccco1)C12CC3CC(C1)CC(C(=O)NCc1ccco1)(C3)C2	0.3
CCOC(=O)CNC(=O)CN1CCCN(S(=O)(=O)c2ccc(Br)s2)CC1	0.7
O=C(NCc1ccccn1)c1cc(-c2ccccc2Cl)on1	0.4
CCC(C)(C)n1nnnc1C(c1cc2cc3c(cc2[nH]c1=O)OCO3)N1CCN(C)CC1 (configuration not stated)	0.6
O=C(Cn1ncc2c3ccccc3n(Cc3cccc(Cl)c3)c2c1=O)N1CCC2(CC1)OCCO2	i
O=S(=O)(c1ccc2nc(COc3ccccc3)[nH]c2c1)N1CCOCC1	i
Cc1ccccc1CN1CCN(CC(=O)NCc2ccc3c(c2)OCO3)C1=O	0.4
CCc1nnc(NC(=O)CSc2nc3ccccc3o2)s1	i
c1cncc(C2Nc3ccccc3-c3nc4ccccc4n32)c1 (configuration not stated)	i
CCn1c(=O)c(=O)[nH]c2cc(C(=O)Nc3ccc(S(=O)(=O)N4CCCC4)cc3)ccc21	1.0
CCOC(=O)c1cc(-c2ccc(C)cc2)n(CC(=O)NCc2ccco2)c1C	0.3
CC(C)C1NC(=S)N(Cc2ccccc2)C1=O (configuration not stated)	i
COc1cccc(-c2cc(C(=O)Nc3c(C)nn(Cc4ccccc4)c3C)no2)c1	i
O=C(Nc1nnc(SCc2ccc(F)cc2)s1)C1Cc2ccccc2CN1C(=O)c1ccco1 (configuration not stated)	0.6
O=C(CN(C(=O)c1ccccc1Cl)C1CCCCC1)Nc1ccc(Cl)c([N+](=O)[O-])c1	6.5
CCCCCn1c(SCCOCC)nc2c1c(=O)[nH]c(=O)n2C	0.2
COc1cc(C)c(Br)cc1S(=O)(=O)NCc1ccccc1	1.0
CN(C)c1ccc(-c2n(C)c3ccccc3[n+]2C)cc1	i
c1ccc(-c2nccc(-c3ccc(-n4cnc5ccccc54)cc3)n2)nc1	2.1
O=c1nc(N2CCOCC2)ccn1Cc1ccc(Br)cc1	i
Further records.
SMILES	H5N1 CPE
COc1ccc(NC(=O)C2CCCN(S(=O)(=O)c3cccc4nonc34)C2)cc1 (configuration not stated)	0.3
COc1ccc(N2CCN(C(=O)Cn3c(=O)[nH]c4ccsc4c3=O)CC2)cc1	0.2
COC(=O)c1ccc(COC(=O)CCc2nc(-c3ccccc3)c(-c3ccccc3)o2)cc1	0.3
CCOC(=O)COn1c(=O)c(C)[n+]([O-])c2ccccc21	1.2
c1cc(-c2nnc3n2CCC3)[nH]n1	0.1
Cc1ccc(S(=O)(=O)N2CCCCC2)cc1C(=O)c1nccn1C	2.0
Cc1cccc2sc(NC(=O)CN(C)S(=O)(=O)c3cccs3)nc12	i
c1ccc(-c2noc(-c3ccncc3)n2)nc1	3.9
